Compound activity as filed in PubChem.
Arbovirus inh: blocks arbovirus infection | AID 1251 | actives 0.37% (n = 200,000) | inhibition, % at 10 µM | arbovirus infection cell-based antiviral screen;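 active = inhibition from about 30%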;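 note: bluetongue infection of BSR cells; cell survival read as ATP light after 72 h; 0% = infected wells without compound and 100% = uninfected wells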
Mtb H37Rv: M. tuberculosis H37Rv growth inhibitors, H37Rv strain (AID 1626); M. tuberculosis H37Rv growth inhibition; higher % means a stronger effect; inhibition, % at 10 µM, or IC50 in µM where a hit was titrated; actives 0.95% (n = 220,000);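 active = confirmed in a dose series; inconclusive = inhibition above 80% but not taken into the dose series; inactive = below 80% or under 30% at every dose of the series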;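 note: bacteria incubated seven days before Alamar blue readout; 0% = bacteria only wells and 100% = bacteria with antibiotic wells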
Mtb betalactam: beta-lactam sensitization of Mtb H37Rv | inhibition, % at 25 µM | M. tuberculosis H37Rv growth with meropenem, percent inhibition; hits of this screen are not shown here | actives 0.27% (n = 330,000);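 active = about 74% or more and at least 40 points above the plate without the antibiotic, then above 30% in a dose series; inconclusive = first-round hits that could not be retested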;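 note: growth measured after seven days incubation then overnight dye step; 0% = bacteria only wells and 100% = bacteria with antibiotic; twin plates without the antibiotic show which effects depend on it; some results filed as inactive read as strong as hits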
RecA intein inh: blocks M. tuberculosis RecA intein splicing; actives 0.75% (n = 290,000); AID 2221; cell-free RecA intein splicing, fluorescence; inhibition, %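 (about 9 µM by stock and volumes)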; in the data active = inhibition above about 30%; inconclusive = no clear call, values can overlap the other calls;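 note: 0% = vehicle wells and 100% = reference inhibitor control wells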
Target sequence (P9WHJ3 whole entry, looked up): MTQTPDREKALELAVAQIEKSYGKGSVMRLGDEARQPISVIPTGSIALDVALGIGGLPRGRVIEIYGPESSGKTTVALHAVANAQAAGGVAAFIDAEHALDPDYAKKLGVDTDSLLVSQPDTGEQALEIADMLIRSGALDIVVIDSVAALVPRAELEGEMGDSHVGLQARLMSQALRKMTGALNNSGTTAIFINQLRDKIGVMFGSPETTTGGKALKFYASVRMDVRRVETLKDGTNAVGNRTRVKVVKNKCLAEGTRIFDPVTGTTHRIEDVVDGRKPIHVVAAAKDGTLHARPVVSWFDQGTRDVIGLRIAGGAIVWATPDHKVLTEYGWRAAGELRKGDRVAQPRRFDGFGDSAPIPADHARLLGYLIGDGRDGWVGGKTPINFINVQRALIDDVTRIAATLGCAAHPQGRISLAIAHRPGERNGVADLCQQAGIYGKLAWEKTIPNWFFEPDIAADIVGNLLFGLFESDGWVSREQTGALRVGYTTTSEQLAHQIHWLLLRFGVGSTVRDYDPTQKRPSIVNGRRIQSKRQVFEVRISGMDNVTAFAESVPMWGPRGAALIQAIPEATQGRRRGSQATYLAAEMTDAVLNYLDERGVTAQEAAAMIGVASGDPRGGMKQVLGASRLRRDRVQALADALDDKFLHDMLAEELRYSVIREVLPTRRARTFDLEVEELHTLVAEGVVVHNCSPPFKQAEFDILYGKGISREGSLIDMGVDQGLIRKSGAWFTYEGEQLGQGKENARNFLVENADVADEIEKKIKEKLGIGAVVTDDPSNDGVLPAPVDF
YopH inh: inhibitors of Yersinia enterocolitica YopH tyrosine phosphatase | fluorescence Ex485/Em525 | inhibition, %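 (about 10 µM by stock and volumes)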 | actives 0.16% (n = 140,000);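 active = inhibition of 50% or more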;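 note: controls were vehicle for no effect and minimum signal wells for full effect; inactives centre near -20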
Arbovirus inh repeat: further read-out of Arbovirus inh, marked with its call; inhibition, %; measured here: 10K subset replicate screen; many hits read low in the repeat;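 first of two repeat runs on a subset; 0% = infected and 100% = uninfected wells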
* = called active by the depositor; u = inconclusive; x = no result given. Only part of the results is shown, so the mix of outcomes need not match the whole.

SMILES	Arbovirus inh	Mtb H37Rv	Mtb betalactam	RecA intein inh	YopH inh	others
NC(=O)C1c2ccccc2CSc2ccccc21 (configuration not stated)	-3.3	5.9%	-0.8	-1.9	-25.0
CC(C)c1cc(=O)n2c(nc3ccccc32)[nH]1	x	x	6.9	-9.1	x
COc1ccc(N(C(=O)c2ccco2)C(C(=O)NC2CCCC2)c2ccc(N(C)C)cc2)cc1OC (configuration not stated)	3.0	-5.6%	-8.0	1.6	-16.6
CSc1ccc(CNc2ccc(C)c(C)c2)cc1	3.1	7.1%	-2.5	11.8	-43.5
CN=c1scc(-c2ccc(Br)cc2)n1C	-5.0	2.5%	-5.9	1.2	-6.9
Cc1ccc(C)c(N(C(=O)c2csnn2)C(C(=O)NC2CCCC2)c2cccnc2)c1 (configuration not stated)	x	x	1.3	0.5	x
CC(Sc1nnc(C(F)(F)F)n1C)C(=O)Nc1ccc(S(N)(=O)=O)cc1 (configuration not stated)	x	3.6%	-5.2	-2.6	x
Cc1ccc(NC(=O)N2CCc3ccccc32)cc1C	-2.7	11.5%	-8.0	8.3	x
COc1ccc(N2C(=O)CSC23C(=O)Nc2ccccc23)cc1OC (configuration not stated)	-1.1	2.0%	0.6	-3.0	-42.6
Cc1cc(C)c(N=C2C(=O)Nc3ccccc32)c(C)c1	x	x	5.7	1.6	x
OCC(O)/C=N/Nc1nc2ccccc2s1 (configuration not stated)	-2.7	u	98.8	-5.5	x
CCC(C)[C@H](N)c1nnc(SCC(=O)c2ccc(Cl)cc2)o1 (some centres not stated)	-7.4	-1.2%	-11.1	0.5	-13.6
O=C(O)COc1ccc(/C=N/n2cnc3scc(-c4cccs4)c3c2=O)cc1	1.8	-4.2%	4.4	x	-20.6
CN1C[C@@H]2C[C@@H](c3cccn3-c3ccccn3)N3CCC[C@@]23C1=O	1.4	4.3%	-11.0	4.5	x
CN(C)C(CNC(=O)C1CCCN(C(=O)c2ccc(Cl)cc2)C1)c1ccco1 (configuration not stated)	0.9	-11.5%	-6.8	x	14.6
NC(=O)C1CCN(Cc2cccc(OCc3ccccc3)c2)CC1	x	x	-0.4	-4.8	x
O=c1c2ccccc2sn1-c1cc(S(=O)(=O)N2CCOCC2)ccc1N1CCOCC1	-44.6	3.5%	-7.3	-1.9	-27.6
CN1C(=O)Cc2cc(S(=O)(=O)N3CCN(c4ccc(Cl)cc4)CC3)ccc21	x	x	8.9	-1.4	x
Cc1ccc(/C=c2\sc3nc(-c4ccco4)nn3c2=O)o1	-1.3	-4.0%	-2.5	-0.3	-40.0
O=C(Nc1ccc(Br)cc1)c1ccc(F)c(S(=O)(=O)NCc2cccs2)c1	-17.9	7.5%	4.6	-3.2	-18.3
COC(=O)c1ccc(CNC(=O)Cn2cnnn2)cc1	x	x	-0.1	0.4	x
COc1ccc(-c2csc(NC(=O)c3ccccc3F)c2C(=O)O)cc1	x	x	9.3	2.1	x
Cc1ccnc(SCc2ccc([N+](=O)[O-])cc2)n1	0.2	1.8%	18.4	-0.6	x
CC(c1ccccc1)N1CC(C(=O)NC2CCCC2)CC1=O (configuration not stated)	2.8	-6.0%	-3.9	-0.9	-32.9
COc1cc2nc(SCC(N)=O)n(CCC3=CCCCC3)c(=O)c2cc1OC	7.9	4.3%	6.1	-2.6	-15.4
CN(Cc1ccc(F)cc1)C(=O)c1cccc(S(=O)(=O)N2CCN(Cc3ccccc3)CC2)c1	x	x	-1.2	4.2	x
CCOC(=O)CC1C(=O)NCCN1C1CCCC1 (configuration not stated)	-5.5	-3.6%	-5.0	1.9	x
N#Cc1ccc(CSCC(=O)O)cc1	6.6	-2.5%	6.8	-0.1	-5.6	Arbovirus inh repeat=-0.1
CC(C)(C)C(=O)N1CCN(c2ncnc3scc(-c4ccccc4)c23)CC1	x	x	3.2	5.6	x
CCCCNC(=O)C1COc2ccccc2O1 (configuration not stated)	0.1	10.0%	0.6	-2.2	-23.4
COc1ccc(N(CC(=O)NCCSc2ccccn2)S(=O)(=O)c2ccccc2)c(OC)c1	x	x	8.6	2.3	x
Nc1ncc(-c2ccccc2)c(-c2ccc(O)cc2O)n1	x	x	9.8	-0.8	x
OCCC1CN(Cc2nc(-c3ccc(F)cc3)cs2)CCN1CCc1ccccc1 (configuration not stated)	4.4	u	3.1	2.1	x
CCOc1ccccc1N(C(=O)c1snc(C(N)=O)c1N)C(C(=O)NC1CCCC1)c1ccco1 (configuration not stated)	-6.2	x	-0.4	-1.2	-29.6
Cc1ccccc1NC(=O)c1ccc2c(c1)C(=O)N(CC(C)C)C2=O	x	x	3.7	0.3	x
O=C(COC(=O)C1CCC1)NCc1ccc(Cl)cc1Cl	x	x	-13.8	-2.0	x
CN(C)CCN1C(=O)C(=O)/C(=C(/O)c2ccc3c(c2)OCCO3)C1c1ccccn1 (configuration not stated)	x	2.3%	-9.8	-2.9	x
CC(=O)c1ccc(Oc2ncnc3sccc23)cc1	-2.9	0.9%	5.2	-0.8	x
COc1ccc(N(CC(=O)NC2CCCC2)C(=O)Cn2nnc(-c3ccc(C)cc3)n2)cc1	-2.1	-1.3%	-3.3	0.3	-11.8
CCc1nc(CN2CCCC(C(=O)c3ccc4c5c(cccc35)CC4)C2)c(C)[nH]1 (configuration not stated)	-6.6	3.9%	77.2	2.5	x
CCOc1ccc(C(=S)N2CCN(C)CC2)cc1	1.8	2.2%	0.2	-6.2	x
OC(COCC(F)(F)C(F)(F)C(F)(F)C(F)F)Cn1c2ccc(Cl)cc2c2cc(Cl)ccc21 (configuration not stated)	-32.7	7.11µM*	99.9	16.9	4.1
O=C(NCc1cccnc1)c1ccc(Br)s1	x	1.6%	9.2	-1.1	x
Cc1cc(NC(=NC2CC2)c2ccccc2)n(-c2ccccc2)n1	5.9	1.5%	6.3	2.5	x
COc1ccc(Br)cc1CNCC1CCCO1 (configuration not stated)	x	x	-10.6	-1.9	x
Cc1c(C(Nc2ccccn2)c2ccccc2)c(=O)n(-c2ccccc2)n1C (configuration not stated)	9.7	0.1%	-6.2	-1.2	-29.2
CCOc1ccc(NC(=O)CN(C)C(=O)c2c(C)nn(-c3ccccc3)c2Cl)cc1OCC	x	x	-15.1	-2.1	x
COc1ccc(C(=O)N2CCN(c3ccccc3OC)CC2)cc1	6.4	0.5%	0.5	-1.0	x
COc1cccc(-c2ccc(SCC(=O)NC3CCCC3)nn2)c1	x	x	-13.3	1.2	x
Cc1cc(C(=O)Nc2ccc(C#N)cc2)on1	x	x	-0.7	-2.7	x
Cn1c2ccccc2c2c(C(=O)O)cn(C3CCCC3)c(=O)c21	0.2	8.3%	-6.8	-2.7	-51.0	Arbovirus inh repeat=2.7
CSc1nc(C)cc(Oc2ccc(=O)n(C)n2)n1	-2.0	-1.3%	-15.0	0.5	14.3
COc1ccc(O)c(/C=N/NC(=O)c2cc(=O)[nH]c3ccccc23)c1	x	7.6%	-0.3	1.1	x
COc1ccc(NC(=O)CC2C(=O)N(c3ccc(Cl)cc3)C(=S)N2CCc2ccccn2)cc1 (configuration not stated)	-21.0	5.9%	12.8	4.6	-7.5
COc1c(C)cccc1C(=O)Nc1ccc(CN2CCCCC2)cc1	1.4	-5.2%	4.5	-0.2	-11.8
S=c1[nH]nc(C2CCCCC2)n1/N=C/C(Cl)=C\c1ccccc1	14.7	12.2%	-2.9	10.1	-25.2
Cc1ccccc1Cn1c(NC2CCCC2)nc2c1c(=O)[nH]c(=O)n2C	x	x	-4.0	2.0	x
CCOc1ccc(N2C(=O)/C(=C\c3ccc(O)c(OC)c3)S(=O)(=O)C2c2cccc([N+](=O)[O-])c2)cc1 (configuration not stated)	6.8	70.6%	-9.1	88.2*	x
Clc1nssc1=Nc1ccc(Br)cc1	16.8	-15.9%	x	8.7	x
CCn1c2ccccc2c2cc(N=C3SC(CC(=O)Nc4ccccc4)C(=O)N3C)ccc21 (configuration not stated)	-0.7	-1.6%	9.1	-4.9	-20.0

The list continues:
SMILES	Arbovirus inh	Mtb H37Rv	Mtb betalactam	RecA intein inh	YopH inh	others
Cc1nn(-c2ccccc2)c(N)c1C(c1ccc(C(C)C)cc1)c1c(C)nn(-c2ccccc2)c1N	-31.2	8.73µM*	100.0	15.4	-1.6
CCOC(=O)c1c(C)n(C)c2ccc(OC)c(NS(=O)(=O)c3ccc(Cl)s3)c12	-0.7	2.8%	1.1	1.4	-50.0
COc1ccc(C(=O)NCC(c2ccco2)N2CCc3ccccc3C2)cc1 (configuration not stated)	x	x	-3.0	4.4	x
CCO[C@@H]1OC(C(=O)N2CCN(Cc3ccccc3)CC2)=C[C@H](c2ccc(C(F)(F)F)cc2)[C@H]1CCCO	-19.8	5.7%	86.1	3.4	x
CCCCCn1c2c(c(=N)c3ccccc31)CCC2	x	7.8%	-7.9	2.4	x
CC(C)(C)NC(=O)C(c1ccco1)N(C(=O)c1ccc(CN2CCOCC2)o1)c1ccccc1 (configuration not stated)	6.3	-4.4%	-6.9	1.0	-43.8
Cc1scc(C(=O)N/N=C/c2ccc(OCC(C)C)cc2)c1C	-21.1	6.9%	60.5	1.4	-11.4
O=c1c2ccccc2ncn1Cc1ccc(Cl)cc1	-22.6	-0.8%	7.4	-6.4	x
Cc1ccc(NC(=O)Nc2ccc3c(c2)OCO3)c(Br)c1	x	x	8.8	-0.6	x
CN(C)CCN(Cc1ccco1)S(=O)(=O)c1csc(C(N)=O)c1	x	x	-2.3	-1.5	x
O=C(/C=C/Nc1ccccc1)C(F)(F)F	19.4	-4.6%	18.2	-1.5	x
CC(C)Oc1ccc(CNC(=O)c2ccc3nc(N4CCOCC4)sc3c2)cc1	x	x	-1.5	-0.8	x
COc1cc(S(=O)(=O)n2nnc3ccccc32)c(OC)cc1Cl	0.1	63.1%	-1.3	-0.5	-14.1
COc1ccc2nc(-c3ccc(Cl)cc3)cc(C(=O)O)c2c1	x	4.4%	70.4	0.4	x
CCOc1ccc(N(C(=O)c2ccc(S(=O)(=O)N3CCCC3)cc2)C2C=CS(=O)(=O)C2)cc1 (configuration not stated)	x	x	2.6	3.9	x
COc1cc2c(cc1OC)C(c1cc3cc4c(cc3[nH]c1=O)OCO4)N(C(=O)C1CC1)CC2 (configuration not stated)	-6.1	-7.1%	11.3	-1.8	-18.5
COc1ccc2nc(N/C(=N/S(=O)(=O)c3cccs3)c3ccccc3Cl)sc2c1	2.1	3.6%	-2.9	2.6	x
COc1ccc(N2CCN(C(=O)NC3CCCCC3)CC2)cc1	-1.4	-1.3%	-6.9	-4.1	-29.3
Cc1[nH]c2ccccc2c1C(=O)CN1CC(C)OC(C)C1 (configuration not stated)	x	-4.5%	-9.2	-1.4	x
Cc1ccc(OCc2nnc(NC(=O)Cc3cccs3)s2)cc1	-2.5	2.5%	x	-1.6	-100.8

The list goes on, starting with the last five of the part before.
SMILES	Arbovirus inh	Mtb H37Rv	Mtb betalactam	RecA intein inh	YopH inh	others
COc1cc2c(cc1OC)C(c1cc3cc4c(cc3[nH]c1=O)OCO4)N(C(=O)C1CC1)CC2 (configuration not stated)	-6.1	-7.1%	11.3	-1.8	-18.5
COc1ccc2nc(N/C(=N/S(=O)(=O)c3cccs3)c3ccccc3Cl)sc2c1	2.1	3.6%	-2.9	2.6	x
COc1ccc(N2CCN(C(=O)NC3CCCCC3)CC2)cc1	-1.4	-1.3%	-6.9	-4.1	-29.3
Cc1[nH]c2ccccc2c1C(=O)CN1CC(C)OC(C)C1 (configuration not stated)	x	-4.5%	-9.2	-1.4	x
Cc1ccc(OCc2nnc(NC(=O)Cc3cccs3)s2)cc1	-2.5	2.5%	x	-1.6	-100.8
CCOC(=O)c1nc2cc3n(c(CC(C)C)c-2c1C)CC(C)=C3C	10.0	-5.2%	3.1	-6.5	-41.5
CN(CC(=O)Nc1c(Cl)cccc1Cl)C(=O)c1ccc2nc[nH]c2c1	x	x	-12.1	2.8	x
O=C(Nc1ccc(N2CCCC2)c(Cl)c1)c1cccc(-c2cc3ccccc3oc2=O)c1	-4.6	7.5%	-0.1	-0.5	-16.4
O=C(CN1C(=O)COc2ccc(Cl)cc21)Nc1ccc(N2CCOCC2)cc1	x	x	-1.4	1.4	x
O=C(CN1CCN(S(=O)(=O)N2CCCCCC2)CC1)Nc1ccc(Br)cc1	x	x	9.6	1.4	x

Retrieved by compound from the list above, 4 records:
SMILES	Arbovirus inh	Mtb H37Rv	Mtb betalactam	RecA intein inh	YopH inh	others
CN(C)C(CNC(=O)C1CCCN(C(=O)c2ccc(Cl)cc2)C1)c1ccco1 (configuration not stated)	0.9	-11.5%	-6.8	x	14.6
OC(COCC(F)(F)C(F)(F)C(F)(F)C(F)F)Cn1c2ccc(Cl)cc2c2cc(Cl)ccc21 (configuration not stated)	-32.7	7.11µM*	99.9	16.9	4.1
S=c1[nH]nc(C2CCCCC2)n1/N=C/C(Cl)=C\c1ccccc1	14.7	12.2%	-2.9	10.1	-25.2
CCOc1ccccc1N(C(=O)c1snc(C(N)=O)c1N)C(C(=O)NC1CCCC1)c1ccco1 (configuration not stated)	-6.2	x	-0.4	-1.2	-29.6
